Screening data deposited in PubChem BioAssay by National Center for Advancing Translational Sciences (NCATS).
Cruzain Triton – inhibitors of Trypanosoma cruzi cruzain with detergent. purified cruzain, Z-FR-AMC fluorescence, 0.01% Triton. Potency, µM, for the others: max response, negative = inhibition, most hits filed as inhibitors. 0.43% of 200,000 active. AID 1478;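 note: plate controls were neutral wells for no effect and buffer without enzyme for full effect; nearly all actives have a fitted effect of over 40% in size; top concentration of the series not given in the record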
Target sequence (P25779 123-467 limits assumed): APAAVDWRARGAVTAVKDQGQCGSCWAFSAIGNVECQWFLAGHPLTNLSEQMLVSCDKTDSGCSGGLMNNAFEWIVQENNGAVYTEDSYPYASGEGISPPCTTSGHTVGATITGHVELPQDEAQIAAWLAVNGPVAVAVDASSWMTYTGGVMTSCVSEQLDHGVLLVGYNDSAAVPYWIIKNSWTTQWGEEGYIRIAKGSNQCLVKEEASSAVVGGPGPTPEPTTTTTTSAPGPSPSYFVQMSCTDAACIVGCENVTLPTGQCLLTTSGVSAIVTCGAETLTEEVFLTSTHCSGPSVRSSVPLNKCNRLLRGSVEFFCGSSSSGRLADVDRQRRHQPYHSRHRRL
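Cruzain (1.5 nM) preincubated 15 min at RT with compound in 100 mM sodium acetate pH 5.5, 5 mM DTT, 0.01% Triton X-100. Reaction started with 2 uM Z-FR-AMC; AMC fluorescence (ex 360/em 450 nm) change over 60 s gave rate.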
SARS PLP yeast – SARS-CoV PLP inhibition in yeast. S. cerevisiae expressing SARS-CoV PLpro, growth rescue; control for the full effect not named in the record. Potency, µM (highest dose often 32.9 µM), without a hit: top-dose activity, positive = growth rescue. 0.19% of 330,000 active; active means well fitted rising curve with a large enough effect; inconclusive means small, poorly fitted or top-dose-only effect; inactive means no such curve, though single readings can be large or run the other way; note: 0% is about no effect; nearly all actives have a fitted effect of over 55% in size; growth read by luminescence after 48 h
MARV entry inh – blocks Marburg virus binding to or entry into cells. Marburg virus pseudotyped entry inhibition, cell reporter; control for the full effect not named in the record; about a third of the inactives were read at about 46 µM. Potency, µM (top dose mostly 37.8 µM), without a hit: at the highest dose activity change, negative = inhibition, usual class: inhibitors. 1.8% of 300,000 active. AID 540276; active = well fitted inhibition curve with a large enough effect; inconclusive = small, poorly fitted or top-dose-only effect, or effect the other way; inactive = flat fitted curve, though single readings scatter; tested in HEK293 cells; about a fifth of its hits are not listed in these tables; note: % is set by controls: 0 for no effect and ±100 for the full control effect; luciferase read-out
LASV entry inh – inhibitors of Lassa virus binding or cell entry | Lassa virus pseudotype entry inhibition, cell reporter; control for the full effect not named in the record | Potency, µM (titrated, usually from 37.9 µM), for the others: top-dose activity change, negative = inhibition, most hits filed as inhibitors | 1.2% of 300,000 active | AID 540256; active means well fitted inhibition curve with a large enough effect; inconclusive means small, poorly fitted or top-dose-only effect, or effect the other way; inactive means flat fitted curve, though single readings scatter; tested in HEK293 cells; note: % is set by controls: 0 for no effect and ±100 for the full control effect; nearly all actives have a fitted effect of over 50% in size; luciferase read-out
NS1 inh – blocks influenza NS1 protein function; S. cerevisiae slowed by influenza A NS1, growth recovery by OD600; Potency, µM (top dose mostly 46.1 µM), for the others: at the highest dose activity, positive = more growth; 0.4% of 270,000 active; active means well fitted rising curve with a large enough effect; inconclusive means small, poorly fitted or top-dose-only effect; inactive means no such curve, though single readings can be large or run the other way; note: nearly all actives have a fitted effect of over 50% in size
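Compounds were scored for reversing the slow growth caused by influenza A NS1 in S. cerevisiae, measured by optical density at 600 nm. Assay medium contained 2% galactose at pH 6.0; NS1-free yeast of the same strain were the positive control.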
RE007 growth inh – less growth of the S. pombe RE007 Vpr strain; Potency, µM (series often up to 92.2 µM), without a hit: top-dose activity change, negative = less growth; S. pombe RE007 Vpr strain, BacTiter-Glo ATP luminescence, 24 h; control for the full effect not named in the record; 0.21% of 360,000 active; active = well fitted falling curve with a large enough effect; inconclusive = small, poorly fitted or top-dose-only effect; inactive = no such curve, though single readings can be large or run the other way;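 note: % is set by controls: 0 for no effect and ±100 for the full control effect; nearly all actives have a fitted effect of over 50% in size; the assay follows cell death caused by Vpr and the record does not say whether a fall means rescue or toxicity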
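Fission yeast RE007 carrying one integrated HIV-1 vpr copy, seeded at OD 0.01 in PMG+AL medium with 23 nL pinned compound. Grown 24 h at 30 degrees; viability read by BacTiter-Glo luminescence after 5 min.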
Cruzain inh noDet – cruzain (T. cruzi) inhibition without detergent; purified cruzain, Z-FR-AMC fluorescence, no detergent; Potency, µM, inactives show max response, negative = inhibition, most hits filed as inhibitors; 2.3% of 200,000 active;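 note: plate controls were enzyme without inhibitor for no effect and buffer without enzyme for full effect; nearly all actives have a fitted effect of over 40% in size; top concentration of the series not given in the record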
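Detergent-free condition (0.00005% Triton X-100) in acetate buffer pH 5.5 with DTT. 1.5 nM enzyme and compound were pre-mixed 15 min, then 2 uM Z-FR-AMC substrate added; reaction progress from fluorescence change between first and third reads (60 s).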
StopGo reporter – lowers the luciferase signal of an FMDV 2A StopGo reporter; human cells with a luciferase reporter of 2A StopGo recoding; control for the full effect not named in the record; 1.2% of 410,000 active; Potency, µM (highest dose often 57.9 µM), inactives show at the highest dose signal change, negative = less light; active = well fitted falling curve with a large enough effect; inconclusive = small, poorly fitted or top-dose-only effect; inactive = no such curve, though single readings can be large or run the other way; tested in HEK293T cells; note: % is set by controls: 0 for no effect and ±100 for the full control effect; nearly all actives have a fitted effect of over 45% in size; luciferase light after 4 h
Starred values were filed as active, the others as inactive; ? = inconclusive; . = no result given; & = joins results of further samples; [ ] = remark or other dose. Unless noted, calls come from the whole dose curve; as a rule, active = well fitted curve in the direction sought with a large enough effect; inconclusive = small, poorly fitted or top-dose-only effect, or another doubt; inactive = no such curve, though single readings can be large; an effect the other way counts as inactive or inconclusive. Potency is the fitted concentration of half-maximal effect.

SMILES | Cruzain Triton | SARS PLP yeast | MARV entry inh | LASV entry inh | NS1 inh | RE007 growth inh | Cruzain inh noDet | StopGo reporter
COC(=O)COc1ccc(Oc2nc(NC(C)(C)C)nc(N3CCOCC3)n2)nn1 | -0.9% | . | ? | 2.3%[46.1 µM] | . | . | 7.5% | 6.3%
C=CCN(c1ccccc1)S(=O)(=O)c1cccc(C(=O)OCC(=O)NCCOC)c1 | . | 0.2% | . | . | ? | 20.6% | . | -11.9%
O=C(Nc1ccc(Cl)cn1)c1cccc(S(=O)(=O)N2CCCCC2)c1 | . | -5.8% | -0.3%[46.1 µM] | 10.1% | -6.1% | -0.1% | . | -24.0%
Cn1c(=O)c2c(nc(SCC(=O)N3CCc4ccccc43)n2Cc2ccccc2)n(C)c1=O | 1.2% | 1.5% | . | . | -19.6% | . | ? | .
O=C(N/N=C/c1cccc(F)c1)c1cc(-c2ccco2)nc2ccccc12 | -14.0% | -32.9% | ? | -1.6% | -0.6% | 12.2% | 5.7% | 17.6%
Cc1cc(=O)oc(C)c1C(=O)Nc1cccc(F)c1 | . | 0.3% | . | . | 4.7% | -12.9% | . | -22.3%
C=CCc1cccc2cc(C(=O)Nc3ccc(CC(=O)O)cc3)c(=O)oc12 | . | 0.8% | ? | ? | 15.9% | -1.1% | . | -28.3%
CC(c1cccs1)N(C)Cc1nc(CCc2ccccc2)no1 (stereo not given) | . | 0.1% | 9.0% | -21.0% | 2.7% | -8.6% | . | 5.4%
COc1ccc(OC)c(NC(=O)COC(=O)COc2c(Cl)cc(Cl)c3ccc(C)nc23)c1 | . | . | -0.3%[46.1 µM] | 12.9% | . | 6.8% | . | -6.9%
CC(C)(C)N1C(=O)c2ccc(C(=O)Nc3nccs3)cc2C1=O | -5.5% | -14.8% | 0.9%[46.1 µM] | ? | -60.7% | -5.1% | 13.6% | 0.0%
CCCCCCn1c(O)c(C=Nc2c(C)n(C)n(-c3ccccc3)c2=O)c(=O)[nH]c1=O | -4.2% | -1.2% | -6.5%&-6.5%&-6.5% | -4.6% | 0.9% | -4.3% | 4.1% | -22.3%
Cc1ccc(NC(=O)CN(C)C(=O)c2ccc3[nH]c4c(c3c2)CC(C)CC4)cc1 (stereo not given) | . | 6.7% | . | . | . | 24.3% | . | -16.8%
COCC(=O)Nc1cc(C)c2c(=O)oc3ccccc3c2n1 | . | 0.2% | . | . | 8.3% | 1.8% | . | -8.1%
O=C1NC(c2cccc(Cl)c2)Oc2ccccc21 (stereo not given) | . | 1.2% | ? | -4.7% | 2.0% | 1.9% | . | -24.2%
O=C(Cc1ccccc1)N/N=C/c1ccccc1F | -3.2% | -4.0% | . | . | 0.8% | . | 13.8% | .

Two neighbouring records already listed:
SMILES | Cruzain Triton | SARS PLP yeast | MARV entry inh | LASV entry inh | NS1 inh | RE007 growth inh | Cruzain inh noDet | StopGo reporter
Cc1ccc(NC(=O)CN(C)C(=O)c2ccc3[nH]c4c(c3c2)CC(C)CC4)cc1 (stereo not given) | . | 6.7% | . | . | . | 24.3% | . | -16.8%
COCC(=O)Nc1cc(C)c2c(=O)oc3ccccc3c2n1 | . | 0.2% | . | . | 8.3% | 1.8% | . | -8.1%

The list continues:
SMILES | Cruzain Triton | SARS PLP yeast | MARV entry inh | LASV entry inh | NS1 inh | RE007 growth inh | Cruzain inh noDet | StopGo reporter
Cc1cccc(NC(=O)COC(=O)c2ccccc2-c2nc3ccccc3s2)c1C | 0.7% | -16.3% | -0.2% | . | 7.1% | -0.2% | 1.5% | -23.9%
O=C(c1ccc(S(=O)(=O)N2CCCC2)cc1)N(c1ccccc1)C1C=CS(=O)(=O)C1 (stereo not given) | . | -3.4% | 19.4% | 24.3% | 10.8% | -7.8% | . | -18.8%
CCn1c(C)cc2c(c1=O)C(c1ccncc1)C(C#N)=C(N)O2 (stereo not given) | -4.0% | 2.3% | 1.4% | -10.8% | 6.0% | ? | -2.3% | -22.1%
CCOc1ccccc1N1CCN(C(=O)c2c(-c3c(F)cccc3Cl)noc2C)CC1 | . | . | -2.3% | 1.1% | . | -6.5% | . | ?
CCc1nc2ccc(C(=O)N(C)CC(=O)Nc3ccc(F)c(F)c3F)cc2nc1CC | . | 0.5% | -13.3% | -2.3% | . | 4.2% | . | 4.4%
O=C(COc1ccc2c(-c3ccccc3)cc(=O)oc2c1)N[C@@H](Cc1c[nH]c2ccc(O)cc12)C(=O)O | . | 4.6% | . | . | 8.6% | 9.6% | . | -1.0%
O=C(NCCCN1CCCC1=O)c1cc(-c2cccnc2)nc2ccc(Cl)cc12 | . | -8.1% | 3.8% | -29.2% | . | 8.9% | . | -16.7%
CC(C)CNC(=S)NC1CC2CCCC(C1)N2Cc1cccs1 (stereo not given) | 7.7% | 15.1% | ? | -11.5% | -5.0% | -17.1% | 3.0% | .
CC(=O)Nc1ccccc1OC(=O)N1CCOCC1 | 3.5% | 8.4% | -7.8% | 12.1% | -2.1% | 0.0% | -2.3% | 13.8%
CC(=O)N(CC(=O)Nc1sc(C)c(C)c1C(N)=O)Cc1ccccc1 | . | -1.0% | -8.4%[46.1 µM] | 6.6% | 2.5% | 5.5% | . | -2.4%
CCN1CCc2nc3ccccc3c(C(=O)Nc3ccc(F)cc3)c2C1 | . | -0.7% | . | . | -3.4% | -13.4% | . | -12.8%
Cc1cc(OCC[N+]2(C)CCCCC2)nc2ccccc12 | 1.2% | ? | 2.1% | -8.9% | 3.2% | 1.2% | -6.3% | -14.4%
COc1ccc(C(=O)c2ccc([N+](=O)[O-])cc2)cc1S(=O)(=O)N1CCC(C(=O)O)CC1 | . | 16.3% | . | . | -6.3% | -7.1% | . | -11.0%
COc1ccc2oc(=O)c(C(=O)NCCc3c(C)[nH]c4ccc(C)cc34)cc2c1 | -7.3% | . | -2.1%[46.1 µM] | 0.7%[46.1 µM] | . | . | -14.4% | ?
O=C1Cc2ccccc2Sc2ccc(Cl)cc21 | -4.2% | -5.6% | -0.1% | -14.6% | -12.0% | -7.2% | 1.7% | -11.4%
O=C(c1cccc(C(=O)N2CCN(c3ncccn3)CC2)c1)N1CCN(c2ncccn2)CC1 | 5.7% | 3.0% | 9.3%&9.3% | -0.7% | -3.7% | 9.1% | -6.6% | 0.0%
CCCCCCCCC(=O)N1CCN(c2cc3c(cc2F)c(=O)c(C(=O)O)cn3CC)CC1 | . | 1.6% | . | . | 2.5% | 8.3% | . | -0.6%
CCc1ccc(NC(=O)CSc2ccc(-c3sc(-c4ccccc4)nc3C)nn2)cc1 | -0.3% | . | . | -17.0%[46.1 µM] | . | . | 8.6% | -4.3%
O=C(Nc1ccc(N2CCOCC2)c(Cl)c1)C1CCCCC1 | 0.0% | -5.6% | ? | ? | -4.1% | 4.0% | -3.4% | 35.8%[activator]
Cc1nc2ccccn2c1C(=O)NCC(C)C | -2.5% | 17.7% | 7.4% | 4.8% | 1.2% | 2.1% | -1.4% | -3.2%
COc1ccc(CCNC(=O)CCc2cc(OC)c(OC)c(OC)c2)cc1 | . | -0.3% | . | . | 3.6% | 3.0% | . | -4.3%
Cn1c(=O)c2c(-c3ccccc3)n3c(c2n(C)c1=O)C(c1ccccc1[N+](=O)[O-])Nc1ccccc1-3 (stereo not given) | -7.0% | . | 5.9%[46.1 µM] | -12.3%[46.1 µM] | . | . | -14.3% | 0.0%
CCCCN(C)CCCNC(=O)c1ccc2c(c1)NC(=O)C(N1CCOCC1)S2 (stereo not given) | 0.2% | 6.4% | -3.1% | -0.8% | ? | -1.0% | -0.6% | -15.6%
CCOC(=O)C1CCN(C(=O)Cn2nc(C)n3cccc3c2=O)CC1 | . | 2.1% | . | . | -2.5% | 20.3% | . | -8.9%
CCOc1ccc(C2=NC(c3cccs3)=Nc3ccc(C(C)C)cc3N2)cc1 | -7.0% | . | ? | 24.1%[46.1 µM] | . | . | 3.16µM* | 56.4%[activator]
COc1cccc(Oc2ccc(N)cn2)c1 | 3.3% | 0.4% | 26.1% | 12.8% | 2.0% | -15.4% | -14.4% | 14.5%
CC(C)CC(=O)NC1(C(F)(F)F)C(=O)Nc2c1c(=O)[nH]c(=O)n2Cc1ccco1 (stereo not given) | 2.4% | -0.4% | 3.2% | 9.9% | -0.7% | 1.7% | -5.8% | -7.3%
CCOc1ccccc1NC(=O)C(C)N1C(=O)c2ccccc2S1(=O)=O (stereo not given) | . | -1.5% | 1.8% | ? | . | 43.8% | . | ?
O=C(O)/C=C/C(=O)N1CCN(S(=O)(=O)c2cccc(C(F)(F)F)c2)CC1 | . | -0.1% | . | . | 8.5% | -12.8% | . | 6.2%
Cc1cc(Br)c(NC(=O)CN(C)CCOc2ccccc2)c(Br)c1 | . | -5.8% | . | . | -4.8% | -8.9% | . | -5.0%
CNC(=O)N(C1=NCC(C)(C)S1)c1ccc(F)c(Cl)c1 | -17.5% | 7.9% | . | . | -89.1% | 6.5% | 6.7% | -29.2%
Cc1ccc(CNC(=O)CCCn2c(=O)c3ccccc3n(Cc3ccccc3C)c2=O)cc1 | -0.2% | . | 22.7%[46.1 µM] | -20.5%[46.1 µM] | . | . | 9.0% | -21.0%
CCCN1C(=O)/C(=C/C=C2\N(CC)c3ccccc3C2(C)C)SC1=S | -4.0% | 0.4% | ? | -5.1% | 10.5% | -2.1% | ? | ?
COC(=O)Cc1csc(Nc2c(C)n(C)n(-c3ccccc3)c2=O)n1 | 1.2% | 1.4% | 15.5% | -7.8% | 5.1% | -5.0% | -4.0% | 4.7%
C=CCN1C(=O)C(Cc2ccc(OC)cc2)S/C1=N/N=C/c1ccco1 (stereo not given) | 9.0% | -3.3% | -0.1% | -26.3% | -6.5% | -3.5% | 10.9% | -26.0%
FC(F)(F)c1cccnc1N1CCN(c2ncnc3nc[nH]c23)CC1 | -6.8% | 0.4% | . | . | -2.8% | 0.1% | 0.2% | -26.8%
Cc1cc2oc(=O)cc(-c3ccccc3)c2c(C)c1-c1ccc(O)cc1 | 1.6% | -78.4% | . | . | . | 8.0% | ? | -29.7%
O=C(CNC(=O)C12CC3CC(CC(C3)C1)C2)N1CCN(S(=O)(=O)/C=C/c2ccccc2)CC1 | -4.6% | 24.6% | -16.9% | ? | 3.6% | -13.8% | -4.6% | 39.8µM*
